RanGTP-Imp inh – inhibitors of RanGTP-importin-beta interaction, primary screen, biochemical, FRET, CFP-Ran, YFP-importin-beta, homogeneous; 300,000 compounds, 1.1% hits; cell-free CFP-Ran/YFP-importin-beta FRET ratio; AID 2216, 2009; inhibition, % (no concentration beside the values);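 active = most replicates above 15%; inconclusive = exactly half above 15%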;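 also: 0% = DMSO wells and 100% = Ran loaded with GDP instead of GTP; wells of about 40 µL received 100 nL stock; the first replicate is given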
Calb FLC – C. albicans growth inhibition with fluconazole, primary screen, CaCi-2 strain, Alamar Blue fluorescence; 300,000 compounds, 0.57% hits; C. albicans CaCi-2 (fluconazole-resistant clinical isolate) + fluconazole, 48 h; AID 1979, 2009; growth inhibition, % (concentration not given with the values);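 active = most replicates above 75%; inconclusive = exactly half above 75%; inactive = most below 75%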;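 also: all wells also contain fluconazole at 8 µg/ml as a sub-toxic cotreatment; 0% = median of DMSO wells and 100% = median of geldanamycin control wells; wells of about 8 µL received 7.5 nL stock; the first replicate is given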
Vif TR-FRET – inhibitors of Vif binding to APOBEC3G peptide, primary screen, biochemical, TR-FRET, GST-Vif 1-94, biotin-A3G peptide, dose response retest (AID 1117319); 260,000 compounds, 0.57% hits; TR-FRET GST-Vif / biotin-A3G peptide binding; higher % means a stronger effect; test concentration not given here; strong numbers were not always called active; Virion infectivity factor (Human immunodeficiency virus type 1 group M subtype B (isolate …; inhibition, %, or IC50 in µM where a hit was titrated;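 active = above the screen mean plus three standard deviations and confirmed in dose response; inconclusive = results disagree or hit not tested in dose response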;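 also: Vif residues 1-94 fused to GST binding biotinylated APOBEC3G peptide 110-148; 0% = full assay without inhibitor and 100% = GST in place of GST-Vif; retest series ran down from 100 µM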
LANA-H2A inh – blockers of LANA interaction with H2A/H2B – biochemical, FP readout, HTS, primary screen; Protein LANA1 (Human herpesvirus 8 type P (isolate GK18)), Q9QR71; cell-free LANA-H2A/H2B peptide, fluorescence polarization; inhibition, % (test concentration not listed); 320,000 compounds, 0.6% hits; in the data active = inhibition mostly above about 10%, no sharp cut-off; inactive = mostly below about 6.7%;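 also: stock transfer was 7.5 nL into about 10 µL; 0% = median of vehicle wells and 100% = median of positive control wells; one replicate is shown; the record names a cut of 25% in any replicate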
Beta apoptosis – inhibitors of cytokine-induced beta cell apoptosis, primary screen, luminescence. INS-1E cytokine-induced death, ATP luminescence, 48 h; percent of positive-control rescue, neutral wells zero. protection from apoptosis, % (concentration not given with the values). 300,000 compounds, 0.8% hits;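 active = all replicates at 75% or more, or half of them and the mean; inconclusive = half reach 75% but not the mean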;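 also: 0% = cytokine-treated negative control wells and 100% = positive control rescue; higher means more ATP so stronger rescue from cytokine killing; wells of about 40 µL received 100 nL stock; the first replicate is given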
Bfl-1 A1 inh – caspase 3/7 activation in MEF A1-2A-BIM cells, primary screen, A1 inhibitor project, cell-based, luminescence, HTS. caspase activation, % (no concentration beside the values). Caspase-Glo 3/7 luminescence, 3 h; percent of clofoctol response, vehicle zero. 330,000 compounds, 0.066% hits. AID 2462, 2010;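 active = over half of replicate activation scores above 10%, or exactly half above 10 with the replicate mean above 10; inconclusive = replicate mean below 10 yet half the replicates above 10; inactive = over half of replicates below 10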;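 also: wells of about 30 µL received 50 nL stock; many hits fall short of the cut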
T cruzi repl – inhibitors of intracellular T. cruzi growth, primary screen, luminescence, NIH3T3 host cells. T. cruzi beta-gal in NIH3T3, 90 h. inhibition, % (concentration not given with the values). 300,000 compounds, 1.4% hits. AID 1885, 2009;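 active = mean inhibition across valid replicates above about 55%, limit read from the data; inconclusive = mean below that limit but half or more replicates reach it; inactive = mean below it, under half of replicates reach it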;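 also: signal also drops with host cell toxicity which is not excluded here; 0% = plate median of DMSO wells and 100% = zero luminescence signal; higher percent means less beta-gal luminescence so fewer parasites; stock transfer was 50 nL into about 50 µL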
MLL AF4-AF9 inh – inhibitors of AF4 peptide binding to AF9, primary screen, biochemical, AlphaScreen, biotin-AF4 peptide, FLAG-AF9, single point | Protein AF-9 (Homo sapiens), P42568 | inhibition, % at 10 µM | 350,000 compounds, 0.47% hits | AID 651704, 2012;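 active = every replicate reaching a set inhibition limit, whatever the replicate mean, cut at about 25% in these data; inconclusive = mean inhibition reaches that limit but some replicates miss it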;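 also: 0% = plate neutral control median and 100% = total signal loss; the record names both 10 and 1 µM as test concentration; the first replicate is given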
Target sequence (P42568 whole entry, looked up): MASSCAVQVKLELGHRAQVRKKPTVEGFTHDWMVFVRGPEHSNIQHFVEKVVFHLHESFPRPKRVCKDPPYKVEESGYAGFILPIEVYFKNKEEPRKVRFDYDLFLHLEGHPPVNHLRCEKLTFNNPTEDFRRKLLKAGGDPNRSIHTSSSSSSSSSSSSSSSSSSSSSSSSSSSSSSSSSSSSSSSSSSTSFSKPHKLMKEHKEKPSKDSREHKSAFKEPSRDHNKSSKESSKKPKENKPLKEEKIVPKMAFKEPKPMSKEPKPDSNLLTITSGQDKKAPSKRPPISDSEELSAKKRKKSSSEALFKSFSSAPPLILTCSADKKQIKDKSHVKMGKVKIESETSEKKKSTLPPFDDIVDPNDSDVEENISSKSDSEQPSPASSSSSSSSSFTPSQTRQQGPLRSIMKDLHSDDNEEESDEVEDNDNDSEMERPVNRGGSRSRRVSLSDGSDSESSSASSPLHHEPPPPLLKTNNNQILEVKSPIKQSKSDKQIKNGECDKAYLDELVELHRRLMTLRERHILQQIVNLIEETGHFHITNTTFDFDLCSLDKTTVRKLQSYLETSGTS
Active calls of the source: *; ? = inconclusive; / = not tested or not shown; & = joins results of further samples.

structure	RanGTP-Imp inh	Calb FLC	Vif TR-FRET	LANA-H2A inh	Beta apoptosis	Bfl-1 A1 inh	T cruzi repl	MLL AF4-AF9 inh
Cc1ccccc1C(=O)NCC(=O)O	3.0	9	2%	-7.1	-2	-0.8	-14	0.2
Cc1ccc(C)c(S(=O)(=O)N2CCNCC2)c1	1.5	-10	4%	-1.9	-10	-0.2	-9	-0.6
Cc1cc(=O)[nH]c(N/N=C/c2cc(C)n(CC(F)(F)F)c2C)n1	3.4	-3	19%	2.2	0	0.3	-10	-2.5
CCc1ccc(S(=O)(=O)NCc2cn3ccsc3n2)s1	-2.1	7	6%&-4%	1.0	-3	0.3	-21	/
O=C1CC(C(F)(F)C(F)(F)C(F)(F)C(F)F)=Nc2ccccc2N1	-1.1	-6	3%	2.4	1	0.0	-3	/
CN(Cc1ccnc2ccccc12)C(=O)C1CCC(=O)N(Cc2ccccc2F)C1 (stereo not given)	-2.5	16	/	2.2	-1	-0.2	-4	-0.9
CNC(=S)NC1CC2CCCC(C1)N2Cc1ccc(C)cc1 (stereo not given)	1.3	-23	-11%	6.0	0	-0.5	-16	2.6
CCCN(CCC)CCNC(=O)C1CCN(Cc2nc(-c3ccc(Cl)cc3)oc2C)CC1	0.9	13	-6%	8.8	5	0.0	73*	/
Cc1n[nH]c(=O)n1-c1cccc(C(F)(F)F)c1	-2.2	-4	-7%	0.2	0	-0.2	-9	/
CCOC(=O)c1ccccc1-c1csc(NS(=O)(=O)c2ccc(Cl)cc2)n1	-1.3	17	-2%	-1.6	-16	1.2	6	/
COc1ccc(CCC(=O)Nc2nnc(C)s2)cc1	2.1	-9	/	-0.4	-11	0.7	-11	?
CCC(=O)Nc1cccc(C(=O)c2ccccc2)c1	1.5	-8	10%	0.1	8	-0.2	1	/
NC(=O)CCC(NC(=O)c1ccc(Cl)cc1)C(=O)O (stereo not given)	0.0	-4	-7%	-1.8	0	0.3	3	-1.5
NS(=O)(=O)c1ccc(CNS(=O)(=O)c2cc(Cl)ccc2Cl)cc1	1.0	-13	-11%	5.7	2	0.4	-8	4.0
O=C(N=Nc1c(O)[nH]c2ccc(Br)cc12)c1cc(-c2cccs2)nc2ccccc12	7.0	2	/	/	/	/	56*	8.1
COc1ccc(S(=O)(=O)N2CCN(CC(=O)Nc3ccccc3OC)CC2)cc1	0.2	8	13%	0.3	7	0.4	-6	-0.3
COc1ccccc1NC(=O)Nc1cccc(C)n1	-2.5	-3	/	1.4	-15	-0.1	-6	-1.4
CC12CCC(C(=O)NNc3ccccc3)(C(=O)C1=O)C2(C)C (stereo not given)	2.1	14	6%	-2.2	-3	-0.7	9	2.7
Cc1ccc(Nc2cc(C)nc3ncnn23)c(C)c1	3.3	7	/	2.9	-4	1.8	-9	-12
CCc1nc(SCc2ccc(OCC(C)C)cc2)n[nH]1	-3.6	-18	-3%	-8.4	29	-1.6	11	-1.6
Cc1ccccc1NC(=O)c1cc[n+]([O-])cc1	3.4	-4	/	-4.0	2	1.5	-13	1.0
Cn1c(=O)c2c(nc(Cc3ccccc3)n2C)n(C)c1=O	5.1	5	6%	-1.4	0	1.8	-10	-2.9
Cc1cc(C)cc(SCc2noc(C(=O)NCCN(C)C)c2C(=O)NCCN(C)C)c1	3.2	-9	/	-0.7	8	-0.1	50	4.3
COc1cc(OC)cc(C(=O)N2CCCc3ccccc32)c1	-0.5	-9	13%	-1.9	-3	-0.1	-4	-7.8
CCN(C(=O)c1ccc(NC(C)=O)cc1)c1ccccc1	-0.4	26	5%	4.6	-3	0.3	3	/
CCCCNc1c(-c2ccc(-c3cccc(Cl)c3)cc2)nc2ccc(Cl)cn12	/	/	/	8.0	13	0.8	/	-2.1
COc1ccc(OCC(=O)Nc2ccc3nc(C)sc3c2)cc1	5.1	26	-3%	1.8	-3	-1.4	-24	-2.4
Cc1ccc(S(=O)(=O)NCc2ccccc2)cc1C(=O)N1CCCC(C(F)(F)F)C1 (stereo not given)	1.0	4	-10%	0.8	3	?	15	-1.9
CSc1nnnn1-c1ccc(C(=O)O)cc1	3.6	0	0%	-1.5	-9	-0.1	-12	/
COc1ccc(N(CC(=O)Nc2ccc(Cc3ccncc3)cc2)S(=O)(=O)c2ccccc2)cc1	-1.1	-8	/	1.6	12	-0.7	36	1.1
O=C(O)CC(C(=O)Nc1ccc(F)cc1)C1CCCO1 (stereo not given)	?	-1	5%	-2.9	-8	0.4	1	-0.4
CC(C)(C)NC(=O)COC(=O)c1cncc(Br)c1	2.6	-5	-1%	4.9	-3	0.2	-16	/
CCCSCCCNC(=O)CN1C(=O)COc2ccc(S(=O)(=O)N3CCCC3)cc21	4.3	-6	1%	/	/	/	-2	2.3
O=C(c1ccc2c(c1)OCCO2)N1CCN(Cc2c(F)cccc2Cl)CC1	/	/	/	5.2	-2	0.2	/	-2.6
Cc1cc(Cl)nc(Cl)c1C(=O)NC(=O)NCCC(C)C	2.4	-8	?	-5.3	0	-0.6	3	-0.7
Cc1ccccc1N(CC(=O)NC1CCCC1)C(=O)C1(C)CC(=O)N=C2C=CC=CN21 (stereo not given)	2.9	-6	2%	-1.9	-2	-0.7	-2	/
CCCNC(=O)N[C@@H](CCSC)C(=O)OC	?	24	7%	4.7	-4	0.5	5	/
Cc1cc(C(=O)Nc2ccc(S(=O)(=O)N3CCCC3)cc2)cs1	/	-25	1%	-0.8	1	-0.4	-8	/
S=C(NCc1ccncc1)Nc1ccc(Cl)c(Cl)c1	0.6	-2	-1%	0.5	-9	0.3	-31	/
CC(C(=O)Nc1ccc(N2CCOCC2)cc1)N1C(=O)NC(C)(C)C1=O (stereo not given)	/	/	-9%	-0.2	-5	0.5	/	-2.5
NC(=O)c1nn(-c2ccccc2)nc1NC(=O)Cn1nnc(-c2ccccc2)n1	?	-5	?	1.4	-4	0.7	-13	/
O=C(O)CSc1ncccc1C(=O)O	4.2	5	11%	0.6	-1	0.6	-16	-1.1
CCCCNC(=O)c1cc(-c2ccc(F)cc2)on1	1.4	-25	?	2.0	40	-2.6	21	/
Cc1nc2ccc(S(=O)(=O)NCC(=O)N3CCc4ccccc4C3)cc2s1	-2.0	-6	6%	-1.4	-3	0.9	-2	/
COCCCNC(=O)c1c(N)n(/N=C/c2ccccn2)c2nc3ccccc3nc12	5.4	5	2%	/	/	/	24	/
CCC(C)NC(=O)c1cnc2n(c1=O)CCS2 (stereo not given)	/	/	9%	-0.9	2	-0.1	/	-3.4
O=C(NNS(=O)(=O)c1ccccc1)C(O)(c1ccccc1)c1ccccc1	-4.8	-8	-4%	-7.1	2	0.1	-10	/
CCOc1ccc(-n2c(SCC(=O)Nc3ccc(CC)cc3)nc3n[nH]c(C)c3c2=N)cc1	-5.6	-4	-8%	0.8	6	0.2	5	-15
Cc1cc(C)cc(C(=O)Nc2cccnc2)c1	-3.6	2	/	0.2	3	-0.6	3	-5.4
O=C(COc1ccc(Br)cc1)Nc1ccccc1C(=O)NC1CC1	-0.3	-4	-2%	0.7	1	0.1	2	-0.8
CN1CCN(C(=O)c2cc3nc(-c4ccccc4)cc(C(F)(F)F)n3n2)CC1	22*	5	-2%	0.4	-10	-0.3	3	/
c1ccc(C2=Nn3c(Cn4nnc5ccccc54)nnc3SC2)cc1	3.0	4	3%	0.5	-2	0.5	12	1.2
O=C(Nc1n[nH]c(C(F)(F)F)n1)c1cccs1	-0.6	1	?	1.0	-8	1.0	6	-5.4
C#CCn1c(=NC(=O)CSC(C)=O)sc2cc(F)ccc21	-2.0	-5	-23%	-0.3	-1	-2.3	-5	/
CCn1c(CSCc2ccccc2)n[nH]c1=S	-0.9	8	-10%	1.0	-3	-0.1	-1	-3.2
CN(C)C(CNC(=S)Nc1ccc(F)cc1)c1cccnc1 (stereo not given)	6.0	-4	/	-0.6	-2	-0.9	-17	0.5
Cc1ccc(SCc2[nH]nc3c2C2(C(=O)Nc4ccc([N+](=O)[O-])cc42)C(C#N)=C(N)O3)cc1 (stereo not given)	3.8	-4	5%	0.4	2	1.0	-3	/
CN(C)CCCNc1nc(-c2ccccc2)nc2ccccc12	0.8	-2	/	3.2	1	0.5	22	-0.6
Cc1cccn2cc(CNC(=O)c3ccc(Br)o3)nc12	1.5	0	/	1.9	-3	0.2	-13	-2.2
CCN(CC)S(=O)(=O)c1cccc(NC(=O)COC(=O)C2CC3C=CC2C3)c1 (stereo not given)	-1.1	6	16%	-1.9	-2	0.0	-2	5.6

Remaining list, next part
structure	RanGTP-Imp inh	Calb FLC	Vif TR-FRET	LANA-H2A inh	Beta apoptosis	Bfl-1 A1 inh	T cruzi repl	MLL AF4-AF9 inh
CCCC(=O)Nc1nc(-c2ccc(OC)cc2)cs1	0.8	-3	?	1.6	0	0.1	2	/
O=C(CSc1ccc(Cl)cc1)NCC1CCCO1 (stereo not given)	6.3	3	-2%	3.6	-1	0.4	-2	/
CCc1ccc(-c2cc(C)no2)cc1S(=O)(=O)NCCc1ccc(S(N)(=O)=O)cc1	5.2	-3	/	4.9	-1	0.5	7	3.0
NC(=O)NC(CC(=O)NNC(=O)c1ccccn1)c1ccccc1Cl (stereo not given)	/	/	-3%	-2.7	-4	-1.4	/	0.0
CC1Cc2ccccc2N1C(=O)CN1C(=O)COc2ccccc21 (stereo not given)	-2.9	20	0%	-3.1	-6	0.2	-7	/
CC(C)CCN1C(=O)c2ccc(C(=O)N3CCCCC3)cc2C1=O	/	-10	1%	-4.3	1	1.1	-12	0.5
CCOC(=O)c1c(N)n(CCOC(=O)c2cccs2)c2nc3ccccc3nc12	23*	18	-8%	0.0	-7	-0.9	-13	/
Cc1nc2cc(N)ccc2n1C1CCCCC1	-0.7	-3	?	4.6	0	-0.2	-2	20
CCN(CC)S(=O)(=O)c1ccc(C(=O)Nc2cc(C)on2)cc1	-1.8	5	3%	6.0	-3	0.4	-2	-1.5
COC(=O)c1ccc(COC(=O)C(CCS(C)(=O)=O)N2C(=O)c3ccccc3C2=O)cc1 (stereo not given)	-2.2	-4	/	1.8	-4	-0.8	-6	/
COc1ccc2nccnc2c1[N+](=O)[O-]	1.3	17	-5%	-9.6	-2	0.3	3	2.1
CCCN1C(=S)SC(C)(C)C1/[N+]([O-])=C/c1ccc(S(=O)(=O)NC)cc1 (stereo not given)	-1.2	33	0%	5.2	-5	0.3	13	8.2
CCN1CCN(C(=O)CN2C(=O)COc3ccc(C)cc32)CC1	-2.0	-13	/	1.5	-4	0.1	-3	0.1
O=C(COc1ccc(Cl)cc1)N(Cc1ccco1)C1CCS(=O)(=O)C1 (stereo not given)	-5.4	21	?	-4.1	-3	0.1	/	4.8

Screening data as filed in PubChem.
